gsp agonist: qHTS for Agonist of gsp, the Etiologic Mutation Responsible for Fibrous Dysplasia/McCune-Albright Syndrome: qHTS; Potency, µM (titrated, usually from 76.9 µM), for the others: top-dose activation (cAMP increase), usual class: activators; hit rate 0.13% among 340,000; gsp mutant cells, cAMP HTRF, 30 min; control for the full effect not named in the record; AID 624287, 2012; active = well fitted activation curve with a large enough effect; inconclusive = small, poorly fitted or top-dose-only effect, or another doubt; inactive = no such curve, though single readings can be large or run the other way; cell line not stated here;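 further: phosphodiesterase inhibitor Ro 20-1724 added with compounds to block cAMP breakdown; potency means the concentration at half of the fitted maximal effect; nearly all actives have a fitted effect of over 60% in size; about a fifth of the inactives were tested at one dose only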
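Cells in DMEM/10% FBS with G418 were pretreated with compounds in DMSO plus […] (300 uM stock) for 30 min at 37C. cAMP was measured by HTRF (cAMP-d2 plus anti-cAMP antibody-K) after 30 min at room temperature.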
gsp antagonist: qHTS for Antagonists of gsp, the Etiologic Mutation Responsible for Fibrous Dysplasia/McCune-Albright Syndrome: qHTS; gsp-mutant cells, cAMP HTRF, 30 min; control for the full effect not named in the record; Potency, µM (series often up to 76.9 µM), without a hit: at the top dose activity change, negative = inhibition, usual class: inhibitors; hit rate 0.4% among 340,000; active = falling curve of any shape with a large fitted effect; inconclusive = falling curve, mostly with a smaller effect; inactive = flat or rising curve; cell line not stated here;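 further: intracellular cAMP measured with PDE inhibitor Ro 20-1724 present during compound exposure; potency means the concentration at half of the fitted maximal effect; on the % scale 0 is the no-effect control and ±100 the full control effect; nearly all actives have a fitted effect of over 65% in size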
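Cells in G418 medium, seeded 16-24 h, 37C; buffer exchange to DPBS + 1 mM CaCl2, 0.5 mM MgCl2, 0.05% BSA; cpds in DMSO + […] (300 uM stock), 30 min 37C; HTRF cAMP detection.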
Sfp inh: qHTS Assay for Inhibitors of Bacillus subtilis Sfp phosphopantetheinyl transferase (PPTase). 4'-phosphopantetheinyl transferase ffp (Bacillus subtilis), Q9F4F7. Biochemical Sfp PPTase activity, qHTS. Potency, µM, inactives show max response, negative = inhibition, hits mostly inhibitors. hit rate 3.5% among 310,000. AID 1490, 2009; active means well fitted inhibition curve with a large enough effect; inconclusive means small, poorly fitted or top-dose-only effect, or another doubt; inactive means no such curve, though single readings can be large or run the other way;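 further: the enzyme is Sfp with the accession as filed and its product quenches rhodamine fluorescence; potency means the concentration at half of the fitted maximal effect; 0% = enzyme reaction without inhibitor and -100% = no enzyme wells; top concentration of the series not given in the record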
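With Hepes-Na pH 7.6 buffer containing 10 mM MgCl2, Sfp (15 nM) modified BHQ-2-YbbR (12.5 uM) using rhodamine-CoA (5 uM). Two reads 30 minutes apart at 525/598 nm yielded each well's rate.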
Menin MLL FP FL: qHTS Assay for Inhibitors Targeting the Menin-MLL Interaction in MLL Related Leukemias: Competition With Fluorescein Labeled MLL-derived Peptide; AID 1766, 2009; 290,000 tested, under 10 active; FP activity change, % at 61.4 µM; Fluorescence polarization, fluorescein-MLL peptide displacement from menin; inconclusive = falling polarisation curve, or a change in total fluorescence; inactive = total fluorescence flat and polarisation flat or rising; no compound was filed as active; the % refers to the polarisation; negative = inhibition;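 further: % of control where 0% means no effect; inhibitors lower the polarisation; unlabelled MLL peptide was the positive control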
ClpP mod: qHTS Assay for Activators of ClpP; purified B. subtilis ClpP, FRET peptide cleavage, 20 min; hit rate 1.9% among 340,000; Potency, µM (highest dose often 57.5 µM), without a hit: top-dose activity change, negative = active; active = well fitted falling curve with a large enough effect; inconclusive = small, poorly fitted or top-dose-only effect; inactive = no such curve, though single readings can be large or run the other way; further: potency means the concentration at half of the fitted maximal effect; the source files actives as falling curves though it sought activators and does not explain the sign; nearly all actives have a fitted effect of over 65% in size; many hits overshoot -100%
Target sequence (P80244 whole entry, looked up): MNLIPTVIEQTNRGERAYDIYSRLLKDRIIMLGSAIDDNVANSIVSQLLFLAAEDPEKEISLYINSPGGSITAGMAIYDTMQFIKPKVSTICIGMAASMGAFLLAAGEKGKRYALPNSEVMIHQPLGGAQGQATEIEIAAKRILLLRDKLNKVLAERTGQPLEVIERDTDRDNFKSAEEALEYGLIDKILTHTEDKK
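Purified B. subtilis ClpP, 10 microg/mL final in Tris/HCl pH8 with KCl, BSA, glycerol and Tween-20, cleaved an Abz/nitrotyrosine-quenched decapeptide. Fluorescence (ex 320, em 430) was read at 0 and 20 min at room temperature. Delta was normalized to 5.8 microM ADEP and DMSO/no-enzyme controls.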
TRPML1 blocker: qHTS for Inhibitors of the Human Mucolipin Transient Receptor Potential 1 (TRPML1). Mucolipin-1 (Homo sapiens), Q9GZU1. TRPML1-inducible cells, Ca2+ dye fluorescence, FDSS; active compounds read low; inhibition of EC80 agonist-evoked calcium signal. activity change, negative = inhibition, % (no concentration beside the values). hit rate 0.02% among 390,000; in the data active means activity change below about -50%; inconclusive means about -30% to -50%; inactive means above about -30%;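 further: stimulus is agonist 54-4 at its EC80 concentration; on the % scale 0 is the no-effect control and ±100 the full control effect; compound concentration not given in the record; the text of the record puts the active cut at -80%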
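Calcium fluorescence in TRPML1-DL cells induced overnight with Tet: a 110 s read after compound pin addition, then a 110 s antagonist read after challenge with 54-4 at 4 uM final (EC80).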
TRPV1 potentiator: HTS Assay for Compounds that Act as Potentiators of the Vanilloid Receptor 1; Transient receptor potential cation channel subfamily V member 1 (Homo sapiens), Q8NER1; TRPV1-expressing cells, Fluo-8 calcium influx, capsaicin EC20 potentiation; host cell line not named in the record; control for the full effect not named in the record; potentiation, % at 8.33 µM; hit rate 0.02% among 320,000; AID 540277, 2011; active means potentiation above 80%; inconclusive means 30% to 80%; inactive means below 30%; further: 0% is about no effect
Target sequence (Q8NER1 whole entry, looked up): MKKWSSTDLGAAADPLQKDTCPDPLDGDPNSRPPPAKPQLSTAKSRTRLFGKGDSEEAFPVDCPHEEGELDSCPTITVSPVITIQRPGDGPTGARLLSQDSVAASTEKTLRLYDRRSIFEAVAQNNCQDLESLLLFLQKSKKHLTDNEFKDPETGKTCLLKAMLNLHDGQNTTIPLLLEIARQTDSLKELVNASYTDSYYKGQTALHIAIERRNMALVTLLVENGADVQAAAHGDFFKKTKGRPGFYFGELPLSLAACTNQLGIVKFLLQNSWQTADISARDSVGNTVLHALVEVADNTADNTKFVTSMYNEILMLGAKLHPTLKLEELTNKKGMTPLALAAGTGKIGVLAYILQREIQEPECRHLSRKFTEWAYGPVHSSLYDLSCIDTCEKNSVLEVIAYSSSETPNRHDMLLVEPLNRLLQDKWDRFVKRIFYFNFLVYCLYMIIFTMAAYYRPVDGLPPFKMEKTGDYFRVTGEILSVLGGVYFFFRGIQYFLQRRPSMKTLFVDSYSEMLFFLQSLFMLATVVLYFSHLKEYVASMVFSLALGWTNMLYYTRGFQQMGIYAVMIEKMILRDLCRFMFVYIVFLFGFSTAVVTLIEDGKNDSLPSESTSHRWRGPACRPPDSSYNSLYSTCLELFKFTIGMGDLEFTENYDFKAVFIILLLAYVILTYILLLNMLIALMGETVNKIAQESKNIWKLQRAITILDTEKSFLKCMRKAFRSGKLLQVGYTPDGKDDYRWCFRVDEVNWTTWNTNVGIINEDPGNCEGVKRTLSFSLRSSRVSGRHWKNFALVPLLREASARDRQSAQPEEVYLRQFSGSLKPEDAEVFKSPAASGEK
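TRPV1-expressing cells were cultured overnight at 35.5C and loaded with Fluo-8 calcium dye for 40 to 90 min at room temperature. After a 10 s baseline, compound was added and calcium influx was read kinetically for 3 min (ex 480/em 520 nm).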
The depositor's hits bear a star; u = inconclusive; x = no result given; & = joins results of further samples; [ ] = remark or other dose.

SMILES	gsp agonist	gsp antagonist	Sfp inh	Menin MLL FP FL	ClpP mod	TRPML1 blocker	TRPV1 potentiator
COc1ccc(CCNC(=O)c2ccc(NC(=O)CC3SC(N4CCCCC4)=NC3=O)cc2)cc1 (stereo not drawn)	27%	3%	x	x	1.0%	-6	x
CC(C)CC(NC(=O)C(NC(=O)OC(C)(C)C)C(C)C)C(=O)NC(CCC(=O)OCc1ccccc1)C(N)=O (stereo not drawn)	13%	13%	19%	-1.6	1.3%	-1	2
Cc1cc(SCC(=O)OCC(=O)N(CCC#N)c2ccccc2)nc2ccccc12	-29%	10%	x	x	-27%	10	-14
COc1ccccc1NS(=O)(=O)c1ccc2c(c1)OCCO2	u	6%	16%	0.4	x	-20	3
CCn1c(SCC(=O)NCC2CCCO2)nc2c([nH]c3ccccc32)c1=O (stereo not drawn)	-7%	12%	20%	-3.6	-12%	-1	-8
CC(C)c1ccc(NC(=O)c2ccc(Br)o2)cc1	0%	-4%	15%	3.7	1.0%	3	9
CCc1ccccc1NC(=O)Cn1c(=O)n(-c2ccc(CC(=O)NCC3CCCO3)cc2)c(=O)c2ccccc21 (stereo not drawn)	-12%	-5%	0%	6.5	-7.4%&-25%	2&26	5
COc1cc(C(=O)/C=C/c2cccnc2)c([N+](=O)[O-])cc1OC	28%	8%	x	x	0.2%	-6	-4
Cc1ccc(C2=CSC3=NS(=O)(=O)CCN23)cc1	-1%[15.4 µM]	6%	10%	-1.3	-4.4%	-17	-21
C=CCNC(=S)N1CCN(CCN=CC2=C(O)CC(c3cccs3)CC2=O)CC1 (stereo not drawn)	-5%	-8%	17%	4.2	-0.9%	-6	5
COc1ccc2c(c1)c1c(c(=O)n(-c3ccc(C)cc3)c(=O)n1CC(=O)NCC1CCCO1)n2C (stereo not drawn)	-18%	x	x	x	3.5%	17	x
N#CC1C(=O)NC(=O)C(C#N)C12CCCC(C(F)(F)F)C2 (stereo not drawn)	u	2%	x	x	-2.4%	14	x
COc1ccc(OC)c(CNC(=O)CCC(=O)N2Cc3cccc(OC)c3Oc3ncccc32)c1	-13%	-6%	28%	-2.1	-2.1%	-3	2
COc1ccc(NC(=O)CSc2nnc3ccc(-c4cccnc4)nn23)cc1	u	4%	x	x	0.6%	-9	-4
CC(C)CC(=O)Nc1ccc(OCC(=O)O)cc1	5%	15%	-4%	2.7	-0.2%	-1	16
O=C(N/C(=C/c1ccc(Cl)cc1)c1nc2ccccc2[nH]1)c1ccco1	19%	7%	21%	1.5	194%	-1	-20
COc1ccc(-c2occ(C(=O)O)c2C(=O)O)cc1	-2%	6%	-6%	1.4	-0.7%	0	-4
CSCCC(NS(=O)(=O)c1ccc2c(c1)oc(=O)n2C)C(=O)NC1CCN(Cc2ccccc2)CC1 (stereo not drawn)	1%[15.4 µM]	-3%	4%	1.1	x	-14	7
N#Cc1cnc2c(-c3ccccc3)c(-c3ccccc3)nn2c1N	2%[15.4 µM]	3%	15%	2.0	32µM*	15	u
CCOC(=O)c1ccccc1NC1OC(=O)c2ccccc21 (stereo not drawn)	-41%[inhibitor]	-3%	20%	3.8	28µM*	2	4
COc1ccc(C(=O)OCc2cc(=O)oc3cc(C)ccc23)cc1S(=O)(=O)N1CCOCC1	u	x	x	x	-9.6%	-12	x
COc1ccc(CNC(=O)CCC(=O)c2ccccc2)cc1	-18%	-6%	x	x	1.6%	-2	-1
CCN(c1ccccc1)S(=O)(=O)c1cc(NC(=O)CN2CCN(C)CC2)ccc1Cl	24%	2%	x	x	x	27	x
CC(C)(C)[C@@H]1C=C(C(=O)N2CCN(Cc3ccccc3)CC2)O[C@H](OCc2ccc(CO)cc2)C1	x	-4%	-3%	-2.1	0.8%	17	-15
COCCN(C(=O)c1csnn1)C(C(=O)NC1CCCCC1)c1ccc(Cl)cc1 (stereo not drawn)	u	9%	2%	4.5	x	-8	-6
CCOC(=O)CSC1=NC(=O)/C(=C\c2ccc(OC(C)=O)cc2)S1	-16%	-15%	u	u	0.9%	-14	x
COc1ccc(-n2c(SCc3ccccn3)nc3c(c2=O)SCC3)cc1OC	-8%[15.4 µM]	-8%	-2%	-2.8	x	24	21
CCn1c(-c2ccc(F)cc2)n[nH]c1=S	26%	6%	-25%	2.6	-3.6%	-13	-14
CC(C)Cc1ccc(/C=C/C(=O)NC2CC2)cc1	18%[15.4 µM]	3%	-16%	3.1	1.1%	-1	-28
COC(=O)c1sc(NC(=O)COc2ccccc2OC)nc1C	5%	-10%	7%	0.6	-1.5%	3	1
CC1(C)Cc2c(sc3nc(C4CCCCC4)n(N)c(=O)c23)CO1	-8%[15.4 µM]	-2%	10%	-1.3	x	-8	-4
CCOC(=O)C1CCCN(C(=O)c2ccc(CNc3c(N4CCC(C)CC4)c(=O)c3=O)cc2)C1 (stereo not drawn)	-18%	-3%	9%	-1.6	-0.2%	14	5
CCOC(=O)c1[nH]c2ccc(OC)cc2c1NC(=O)OC	-15%	-1%	6%	1.2	28µM*	13	-8
CCCc1nc(SCC(=O)NNC(=O)C2CCCCC2)c2ccccc2n1	10%	3%	-29%	-2.3	0.7%	12	8
CC(=O)c1ccc(N2CCN(C(=O)C3CCN(C(=O)Nc4ccccc4)CC3)CC2)cc1	-31%	-18%	x	x	-6.2%	-4	-19
O=C(N/N=C/c1cn(Cc2ccccc2)c2ccccc12)c1cccnc1	-47%[inhibitor]	8%	-20%	4.2	x	9	6
CCc1ccc(Nc2nc(N)nc(CSc3nnnn3-c3ccccc3)n2)cc1	12%	3%	-7%	0.5	-3.4%	-12	8
COc1cccc(Nc2nc(-c3sc(NC(=O)c4ccco4)nc3C)cs2)c1	x	-17%	-13%	7.2	-4.4%	15	9
COc1ccc(S(=O)(=O)N(C)C)cc1NC(=O)CSc1nncs1	44%[15.4 µM]	19%	-1%	0.3	0.4%	17	-6
O=C(O/N=C/C1=C(Cl)c2ccccc2CC1)c1ccc(F)cc1	-11%	5%	u	3.1	0.6%	-2	-12
CNS(=O)(=O)c1cc(N(C)S(=O)(=O)c2ccc(C)cc2)c(C)cc1C	-17%	-15%	13%	-2.9	x	47	-4
Cc1ccc(-n2[nH]c3c4c(ccc3c2=O)C(=O)c2ccccc2C4=O)cc1	-1%	4%	10%	2.2	0.8%	7	10
Cc1cccc(NC(=O)c2cc(Cl)sc2Cl)c1C	-2%	2%	10%	1.3	1.9%	-3	20
CCOc1ccc(NC(=O)c2cc(S(=O)(=O)N3CCCCC3)c[nH]2)cc1	-9%	-1%	12%	-2.0	-3.2%&-0.8%	9&21	17

Exported in CSV form: part of the list above.
molecule,gsp agonist,gsp antagonist,Sfp inh,Menin MLL FP FL,ClpP mod,TRPML1 blocker,TRPV1 potentiator
COc1ccc(CCNC(=O)c2ccc(NC(=O)CC3SC(N4CCCCC4)=NC3=O)cc2)cc1 (stereo not drawn),27%,3%,x,x,1.0%,-6,x
CC(C)CC(NC(=O)C(NC(=O)OC(C)(C)C)C(C)C)C(=O)NC(CCC(=O)OCc1ccccc1)C(N)=O (stereo not drawn),13%,13%,19%,-1.6,1.3%,-1,2
Cc1cc(SCC(=O)OCC(=O)N(CCC#N)c2ccccc2)nc2ccccc12,-29%,10%,x,x,-27%,10,-14
COc1ccccc1NS(=O)(=O)c1ccc2c(c1)OCCO2,u,6%,16%,0.4,x,-20,3
CCn1c(SCC(=O)NCC2CCCO2)nc2c([nH]c3ccccc32)c1=O (stereo not drawn),-7%,12%,20%,-3.6,-12%,-1,-8
CC(C)c1ccc(NC(=O)c2ccc(Br)o2)cc1,0%,-4%,15%,3.7,1.0%,3,9
CCc1ccccc1NC(=O)Cn1c(=O)n(-c2ccc(CC(=O)NCC3CCCO3)cc2)c(=O)c2ccccc21 (stereo not drawn),-12%,-5%,0%,6.5,-7.4%&-25%,2&26,5
COc1cc(C(=O)/C=C/c2cccnc2)c([N+](=O)[O-])cc1OC,28%,8%,x,x,0.2%,-6,-4
Cc1ccc(C2=CSC3=NS(=O)(=O)CCN23)cc1,-1%[15.4 µM],6%,10%,-1.3,-4.4%,-17,-21
C=CCNC(=S)N1CCN(CCN=CC2=C(O)CC(c3cccs3)CC2=O)CC1 (stereo not drawn),-5%,-8%,17%,4.2,-0.9%,-6,5
COc1ccc2c(c1)c1c(c(=O)n(-c3ccc(C)cc3)c(=O)n1CC(=O)NCC1CCCO1)n2C (stereo not drawn),-18%,x,x,x,3.5%,17,x
N#CC1C(=O)NC(=O)C(C#N)C12CCCC(C(F)(F)F)C2 (stereo not drawn),u,2%,x,x,-2.4%,14,x

Assay outcomes deposited in PubChem by National Center for Advancing Translational Sciences (NCATS).
